Assay outcomes (PubChem BioAssay)
TRPV1 potentiator = human TRPV1 potentiation. AID 540277. TRPV1-expressing cells, Fluo-8 calcium influx, capsaicin EC20 potentiation; host cell line not named in the record; control for the full effect not named in the record. Q8NER1. 0.02% of 320,000 active. potentiation, % at 8.33 µM; active means potentiation above 80%; inconclusive means 30% to 80%; inactive means below 30%; further: 0% is about no effect
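Fluo-8 calcium influx in TRPV1-expressing cells, kinetic read (ex 480/em 520 nm). Compound added and read 3 min for agonist activity, followed by capsaicin at EC20 final and 2 min further read for enhancement.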
D2 agonist = human D2 receptor agonism in beta-arrestin assay; 0.084% of 360,000 active; P14416; AID 624465; activation, % (concentration not given with the values); DiscoveRx PathHunter D2 beta-arrestin, luminescence, 90 min; 100% = 57 uM dopamine signal; in the data active = activation above about 40%; inconclusive = about 15% to 40%; inactive = below about 15%; further: compound concentration not given in the record; the text of the record calls up to 30% inactive
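Agonist mode: compounds alone added to overnight-plated D2 PathHunter cells for 90 min at 37 C, with 57 uM final dopamine (EC100) defining full response. Beta-arrestin recruitment detected by chemiluminescent reagent, read after 1 h at ambient temperature.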
Sfp PPTase inh = Sfp phosphopantetheinyl transferase inhibition; 3.5% of 310,000 active; Biochemical Sfp PPTase activity, qHTS; Q9F4F7; AID 1490; Potency, µM, for inactives: max response, negative = inhibition, hits mostly inhibitors; active means well fitted inhibition curve with a large enough effect; inconclusive means small, poorly fitted or top-dose-only effect, or another doubt; inactive means no such curve, though single readings can be large or run the other way;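 further: the enzyme is Sfp with the accession as filed and its product quenches rhodamine fluorescence; potency means the concentration at half of the fitted maximal effect; 0% = enzyme reaction without inhibitor and -100% = no enzyme wells; top concentration of the series not given in the record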
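Fluorescence-quenching assay with 15 nM Sfp, 5 uM rhodamine-CoA and 12.5 uM BHQ-2-labelled ybbR peptide in pH 7.6 Hepes/MgCl2 buffer. Enzyme was pre-incubated with compound for 15 min at room temperature. Rate was taken from the 30-min fluorescence change (525/598 nm).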
CtBP-E1A inh = inhibitors of CtBP/E1A interaction; AlphaScreen GST-E1A/His-CtBP binding, 1536-well; active compounds read low; control for the full effect not named in the record; activity change, % (concentration not given with the values); 0.49% of 340,000 active; in the data active means activity change below about -65%; inconclusive means about -30% to -65%; inactive means above about -30%; further: on the % scale 0 is the no-effect control and ±100 the full control effect
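GST-E1A and His-tagged CtBP (125 nM each as 5X stock) were preincubated with pin-transferred compound for 2 h at 37 °C in the dark, then glutathione donor and nickel acceptor beads were added for 1 h before AlphaScreen reading.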
D2 PAM = human D2 receptor positive allosteric modulation; P14416; DiscoveRx D2 beta-arrestin cells, luminescence, 90 min; 100% = 57 uM dopamine signal; potentiation, % (test concentration not listed); 0.23% of 360,000 active; AID 624464; active = potentiation of 50% or more; inconclusive = 30% to 50%; inactive = 30% or less;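 further: compound concentration not given in the record; tested on top of an EC20 dose of dopamine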
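PathHunter beta-arrestin assay in DiscoveRx D2 cells. Compounds were added with an EC20 of dopamine (50 nM final) for 90 min at 37 deg C. Luminescence was read 1 h after detection reagent, with 57 uM dopamine as the EC100 control.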
PINK1 expr mod = PINK1 expression modulation | PINK1 immunofluorescence, high-content cytometry, 24 h | Potency, µM (top dose mostly 76.6 µM), for inactives: at the highest dose activation (PINK1 increase), most hits filed as activators | 0.2% of 410,000 active | AID 624263; active = well fitted activation curve with a large enough effect; inconclusive = small, poorly fitted or top-dose-only effect; inactive = flat fitted curve, though single readings scatter; cell line not stated here;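 further: potency means the concentration at half of the fitted maximal effect; % of control where 0% means no effect; nearly all actives have a fitted effect of over 65% in size; a mitochondrial uncoupler was the plate control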
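Measures PINK1 amount and localization on or inside mitochondria by immunofluorescence. Stable cells get compounds at 5 concentrations for 24 hours before fixation and staining; CCCP controls included.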
Six1-Eya2 blk = blocks human Six1 binding to Eya2. AlphaScreen GST-Six1/His-Eya2 binding, biochemical; active compounds read low; control for the full effect not named in the record. activity change, % (test concentration not listed). 0.56% of 360,000 active. AID 651725; in the data active = activity change below about -65%; inconclusive = about -30% to -65%; inactive = above about -30%; further: on the % scale 0 is the no-effect control and ±100 the full control effect
Target sequence (O00167 whole entry, looked up): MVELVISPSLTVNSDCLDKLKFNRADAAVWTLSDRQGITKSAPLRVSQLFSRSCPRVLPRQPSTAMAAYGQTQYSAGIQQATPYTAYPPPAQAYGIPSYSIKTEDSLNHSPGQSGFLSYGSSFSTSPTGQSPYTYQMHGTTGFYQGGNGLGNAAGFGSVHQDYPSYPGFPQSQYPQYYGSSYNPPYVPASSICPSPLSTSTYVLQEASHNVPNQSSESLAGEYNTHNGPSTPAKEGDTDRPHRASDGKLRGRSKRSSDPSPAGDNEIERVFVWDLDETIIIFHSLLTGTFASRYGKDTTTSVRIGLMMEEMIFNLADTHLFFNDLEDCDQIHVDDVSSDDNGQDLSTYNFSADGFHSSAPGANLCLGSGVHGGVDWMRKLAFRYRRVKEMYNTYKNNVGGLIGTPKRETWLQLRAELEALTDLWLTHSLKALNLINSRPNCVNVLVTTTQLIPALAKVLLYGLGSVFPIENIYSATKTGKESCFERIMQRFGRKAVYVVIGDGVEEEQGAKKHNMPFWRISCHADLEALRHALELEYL
Target sequence (Q15475 whole entry, looked up): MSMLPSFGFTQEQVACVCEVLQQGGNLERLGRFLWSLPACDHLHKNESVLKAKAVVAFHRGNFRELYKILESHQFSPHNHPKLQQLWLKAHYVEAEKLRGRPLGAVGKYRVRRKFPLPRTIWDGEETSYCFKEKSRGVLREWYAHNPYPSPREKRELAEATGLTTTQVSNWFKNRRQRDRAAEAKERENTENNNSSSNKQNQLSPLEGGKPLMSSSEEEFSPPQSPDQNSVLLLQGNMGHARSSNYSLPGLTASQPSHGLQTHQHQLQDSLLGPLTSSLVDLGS
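Homogeneous AlphaScreen proximity assay pairing GST-Six1 with His-tagged Eya2 (added as 5X mix: 250 nM and 500 nM) in 50 mM Tris pH 8.0, 300 mM NaCl, 1 mM TCEP. Glutathione donor and nickel acceptor beads; 1 h, 37 °C, dark.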
Numbers without * were called inactive; ? = inconclusive; . = no result given; & = joins results of further samples; [ ] = remark or other dose.

SMILES | TRPV1 potentiator | D2 agonist | Sfp PPTase inh | CtBP-E1A inh | D2 PAM | PINK1 expr mod | Six1-Eya2 blk
CCOC(=O)/C(C#N)=N\Nc1ccc(S(=O)(=O)Nc2nc(C)cc(C)n2)cc1 | -4 | -4.1 | 3% | -4 | -13 | -0.6% | -3
CN(C(=O)CSc1ncnc2sc3c(c12)CCC3)C1CCS(=O)(=O)C1 (stereo not drawn) | -1 | 5.3 | . | 0 | -2 | -0.6% | -3
Cc1nnc(SCCC(=O)Nc2ccc(F)cc2)s1 | -1 | -4.7 | -9% | 4 | -7 | -0.4% | -1
COc1ccc(Cn2ccc(=O)c(Cc3c(Cl)cccc3Cl)c2C)cc1 | 2 | -1.7 | ? | 7 | 16 | 1.0% | -3
CC(=O)NC1=NN(C(C)=O)C(C)(c2ccc(Cl)s2)S1 (stereo not drawn) | 2 | -2.8 | 8% | 6 | -14 | 0.0% | -1
COc1cc(OC)cc(C(=O)NN2CCCCC2)c1 | 6 | -2.8 | 15% | 4 | -14 | -2.6%[38.3 µM] | 1
O=C(Cn1nnc(-c2ccccc2)n1)NNC(=O)c1ccc(Br)cc1 | 15 | 0.9 | 10% | . | -1 | 2.7% | 4
COc1ccc(N(CC(=O)Nc2cc(C)ccc2C)S(=O)(=O)c2c(C)nn(C)c2C)cc1 | -1 | -4.9 | 10% | -23 | -10 | 4.0% | -1
O=C(c1ccc(F)cc1)N1CCOCC1 | 9 | -2.4 | 5% | . | -1 | 1.3% | -5
O=C(CCC(=O)c1ccc(Oc2ccccc2)cc1)Nc1cccc(Cl)c1 | -6 | -5.0 | 3% | 12 | -4 | 6.5% | -1
CCc1nc2c(OCc3ccccc3C(=O)OC)cccn2c1N(C)C(=O)Nc1ccccc1OC | . | -2.2 | . | -19 | -4 | 0.2% | -12
Cc1cc(C)cc(NC(=O)C2CCCN2S(=O)(=O)c2ccc3c(c2)C(C)(C)C(=O)N3C)c1 (stereo not drawn) | 18 | -1.6 | -8% | 4 | -2 | 0.6%&2.4% | -1
Cc1ccc(OCCC(=O)O)cc1 | 11 | 1.2 | 3% | 0 | 0 | 2.4% | 5
CC(=O)N1c2ccccc2NC2=C(C(=O)CCC2)C1c1ccc(F)cc1 (stereo not drawn) | 1 | 1.4 | -16% | 11 | -10 | -0.6%[38.3 µM] | 7
CN(c1ccccc1)S(=O)(=O)c1cccc(NC(=O)CSc2ncc(C(F)(F)F)cc2Cl)c1 | 5 | -2.8 | 4% | 1 | -16 | 1.8% | 10
COc1ccc(/C=C/C(O)=C(\C#N)c2nnc(N3CCOCC3)n2-c2ccccc2)cc1OC | -7 | -0.4 | 9% | 9 | 17 | 0.9% | 1
CC1=C(C(=O)Nc2ccccc2)C(c2cccnc2)n2nc(-c3cccnc3)nc2N1 (stereo not drawn) | 3 | 1.8 | 17% | 0 | -1 | -0.6% | -2
COc1ccccc1CNC(=O)c1cc(-c2cc(F)ccc2OC(C)C)n[nH]1 | . | 8.7 | . | 2 | -10 | 0.1% | -4
COC(=O)Oc1cncc(C(=O)O)c1 | 0 | -0.5 | 12% | 0 | -7 | 1.4% | 4
O=C1CCc2cc(S(=O)(=O)NC3CCCCC3)cc3c2N1CC3 | -4 | -3.9 | . | 9 | -6 | -0.3% | -3
Cc1ccc(S(=O)(=O)N2CCN(C(=O)Cc3ccsc3)CC2)c(C)c1 | 8 | -3.0 | 2% | 1 | -3 | -0.7% | 5
CC(NC(=O)C(=S)N1CCN(C)CC1)c1ccccc1 (stereo not drawn) | 0 | -0.7 | 12% | 7 | -2 | 0.6% | 0
O=S(=O)(c1ccccc1)N1CCSC1c1ccco1 (stereo not drawn) | -2 | 0.0 | ? | 11 | -4 | -1.7% | 3
COc1ccccc1N1CC(C)(C)C(=O)N(C(=O)c2c(F)cccc2Cl)C1=S | 4 | -4.7 | 22% | -12 | -6 | 6.7% | 1
CC(C)c1ncc(CO)n1Cc1c(Cl)cccc1Cl | . | -2.8 | . | 6 | 0 | 0.4% | 0

Reprinted at random: three records from the list, in no set order.
SMILES | TRPV1 potentiator | D2 agonist | Sfp PPTase inh | CtBP-E1A inh | D2 PAM | PINK1 expr mod | Six1-Eya2 blk
O=C(Cn1nnc(-c2ccccc2)n1)NNC(=O)c1ccc(Br)cc1 | 15 | 0.9 | 10% | . | -1 | 2.7% | 4
Cc1ccc(OCCC(=O)O)cc1 | 11 | 1.2 | 3% | 0 | 0 | 2.4% | 5
O=S(=O)(c1ccccc1)N1CCSC1c1ccco1 (stereo not drawn) | -2 | 0.0 | ? | 11 | -4 | -1.7% | 3

Later entries
SMILES | TRPV1 potentiator | D2 agonist | Sfp PPTase inh | CtBP-E1A inh | D2 PAM | PINK1 expr mod | Six1-Eya2 blk
CNC(=O)c1ccsc1NC(=O)CS(=O)(=O)c1ccccc1 | 20 | -0.1 | . | 4 | -3 | 1.4% | -3
CCN(C(=O)Cn1cnc2c1c(=O)n(C)c(=O)n2C)C1CCS(=O)(=O)C1 (stereo not drawn) | -2 | -1.7 | . | 4 | -3 | 0.4% | -2
O=C(N/N=C1/CCSC1)c1cccc([N+](=O)[O-])c1 | 15 | -2.5 | 8% | 2 | -24 | -0.9% | -4
Cc1ccc(OC(=O)CCC(=O)N2CCc3ccccc32)cc1 | -1 | 2.5 | 2% | -1 | -2 | -5.5%[38.3 µM] | -2
Cc1ccc(C(=O)Nc2cc(C(C)C)c(O)c(C(C)C)c2)cc1 | 7 | 0.9 | ? | 0 | 12 | 1.5% | -9
CC(=O)Nc1ccccc1C(=O)C(=O)Nc1cccc(C(=O)N2CC(C)CC(C)C2)c1 (stereo not drawn) | 3 | 3.1 | 4% | 11 | -1 | 8.2% | 8
COc1cc(SC)ccc1C(=O)NCc1ccc(C)cc1 | -8 | -1.4 | -5% | 3 | 4 | 11%[38.3 µM] | 0
CC(=O)C1=C(O)C(=O)N(c2ccc(C)cc2)C1c1ccc([N+](=O)[O-])cc1 (stereo not drawn) | -17 | -0.9 | ? | . | -7 | -0.1% | 0
CC(C)(C)S(=O)N1Cc2cc(C(=O)NCc3ccc(Oc4ccccc4)cc3)nc(-c3cccc(-c4cc5ccccc5o4)c3)c2[C@@H]1CCO (stereo partly drawn) | . | 4.8 | . | -1 | 2 | -1.3% | -8
CC(C)C[C@@H](CN1CCC[C@H]1CN1C(=O)C(=O)NC[C@@H]1Cc1ccccc1)N1C[C@H](Cc2ccc(O)cc2)N(CCc2ccccc2)C(=O)C1=O | . | . | . | 0 | . | -0.3% | 1
O=C1CNC(=O)/C1=C/c1ccc(O)cc1 | -2 | -2.0 | 1% | -13 | 10 | -4.9% | 7
CC1CCCCC1NC(=O)Cn1nnc2ccccc2c1=O (stereo not drawn) | 4 | -0.6 | 15% | 9 | -6 | 1.7% | 16
Cc1ccc(/C=N/Nc2ccc(Cl)c(C(=O)O)c2)s1 | -7 | 5.1 | -14% | -2 | 51* | 4.3% | -4
C=CCNC(=O)c1scc2c1CCCC2 | 0 | -0.8 | 3% | 1 | -2 | -1.0% | 3
COc1ccc(NC(=O)CSc2nnc(-c3ccncc3)o2)c([N+](=O)[O-])c1 | -6 | 4.3 | 9% | 0 | -3 | 1.4% | -11
Cc1cc(S(=O)(=O)Nc2ccc(C(=O)NCc3ccncc3)cc2)ccc1F | 15 | -3.0 | . | -2 | -7 | 1.6% | 6
CC(C)C[C@H]1CNC(=O)C(=O)N1C[C@@H]1CCCN1C[C@H](CC(C)C)N1C[C@H](Cc2ccccc2)N(CCc2ccccc2)C(=O)C1=O | . | . | . | -7 | . | -0.9% | 13
CCCCn1c(N)c(N(CC(C)C)C(=O)CCC2CCCCC2)c(=O)[nH]c1=O | 11 | -3.0 | 10% | 5 | -21 | 0.7% | 1
CCCCSc1nc(O)c(C2OC(=O)c3c2ccc(OC)c3OC)c(=O)n1-c1ccccc1 (stereo not drawn) | 7 | -2.7 | 79µM* | 0 | -28 | -0.3% | -4
O=C(CN1C(=O)C2C3C=CC(C3)C2C1=O)N1CC=C(c2ccccc2)CC1 (stereo not drawn) | ? | 2.3 | 4% | -3 | -19 | -1.4% | -4
Cc1cc(C(=O)C(=O)N(C)C)c(C)n1-c1ccc([N+](=O)[O-])cc1 | -11 | -2.4 | -7% | 34 | -9 | -2.7%[38.3 µM] | 9
Cc1ccc(S(=O)(=O)Nc2ccccc2C(=O)N2CCN(C)CC2)cc1 | 6 | -3.6 | 12% | 4 | -14 | 0.4% | 9
Nc1ccc(N(CCO)CCO)cc1 | -12 | ? | 13µM* | -12 | 64* | 2.6% | 20
CCC1(CC)N=C(c2ccccc2)C(=S)N1 | 4 | -3.9 | 28% | . | -4 | 2.1% | 1
COC(=O)c1c(NC(=O)c2nn(C)cc2Cl)sc2c1CCCC2 | 4 | -4.1 | 4% | 9 | -14 | ? | 5

(cont.)
SMILES | TRPV1 potentiator | D2 agonist | Sfp PPTase inh | CtBP-E1A inh | D2 PAM | PINK1 expr mod | Six1-Eya2 blk
Cc1c(N(C)C(=O)c2ccco2)c(=O)n(-c2ccccc2)n1C | 12 | -2.0 | 16% | 1 | -1 | 3.2% | 8
Cc1cccc(C(=O)NCCNC(=O)c2ccccn2)c1 | 5 | -2.5 | 10% | 2 | -7 | 1.8% | -8
N/C(=N\NC(=O)c1ccccc1)c1cc2ccccc2oc1=O | -1 | -2.8 | 9% | . | -9 | 1.3% | 1
CCO[C@H]1OC(C(=O)N2CCN(Cc3ccc4c(c3)OCO4)CC2)=C[C@@H](c2ccc(Br)cc2)[C@@H]1CCCO | -2 | 0.2 | -15% | -11 | -13 | -1.0% | -11
Cc1ccc(NC(=O)Nc2cccs2)c(Cl)c1 | -23 | -0.7 | -25% | -17 | -30 | 0.4% | -1
CCCN1C(=O)C2(OCCO2)c2cc(Cl)ccc21 | -3 | -2.4 | 5% | 11 | -1 | 0.7% | 1
COc1ccc(CN2C(=O)CC(Cc3ccc(C)cc3)C2=O)cc1OC (stereo not drawn) | -9 | 0.6 | 1% | -2 | 1 | 0.9% | 5
CCOC(=O)c1sc(NC(=O)c2ccc(S(=O)(=O)N3CCCCCC3)cc2)nc1-c1ccccc1 | -31 | -2.9 | -16% | -3 | -19 | 12% | 0
COc1ccc(CCNC2CCc3ccccc3C2)cc1 (stereo not drawn) | 10 | -4.8 | 6% | . | -69 | 3.1% | 4
Cc1ccccc1NC(=O)COc1coc(CN2CCCc3ccccc32)cc1=O | 27 | 1.6 | . | -2 | -5 | 3.2% | -10
N=c1cc(C2(O)CCCCC2)n2c(nc3ccccc32)s1 | -18 | -3.4 | -17% | 0 | -13 | 8.8%[38.3 µM] | -1
